ALR H2O2 inh – inhibitors of human ALR sulfhydryl oxidase, primary screen, biochemical, H2O2 detection, HRP-luminol luminescence, single point. purified ALR, DTT oxidation. inhibition, % (test concentration not listed). 290,000 compounds, 3.8% hits;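 active = mean and each replicate at 75% or more; inconclusive = only one of the two met; inactive = neither met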;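 also: stock transfer was 7.5 nL into about 7.5 µL; 0% = neutral wells and 100% = wells with inactivated enzyme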
Target sequence (P55789 whole entry, looked up): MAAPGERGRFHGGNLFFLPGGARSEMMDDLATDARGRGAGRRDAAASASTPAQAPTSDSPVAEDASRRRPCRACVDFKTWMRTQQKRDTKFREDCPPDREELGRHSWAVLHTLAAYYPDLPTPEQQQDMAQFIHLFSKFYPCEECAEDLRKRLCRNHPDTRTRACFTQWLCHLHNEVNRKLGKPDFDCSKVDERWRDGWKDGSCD
Ecoli growth – E. coli growth inhibition, primary screen, OD600. Escherichia coli growth, 23 h; active compounds read low. OD600 absorbance (no concentration beside the values). 330,000 compounds, 0.21% hits;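 active = OD600 absorbance below the run mean of sample wells minus 3.6 SD, in any replicate, cut at about 0.56 in these data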;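 also: stock transfer was 300 nL into about 60 µL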
Vif TR-FRET – inhibitors of Vif binding to APOBEC3G peptide, primary screen, biochemical, TR-FRET, GST-Vif 1-94, biotin-A3G peptide, dose response retest (AID 1117319). TR-FRET GST-Vif / biotin-A3G peptide binding; higher % means a stronger effect; test concentration not given here; strong numbers were not always called active. Virion infectivity factor (Human immunodeficiency virus type 1 group M subtype B (isolate …. inhibition, %; hits with a dose series show IC50 in µM. 260,000 compounds, 0.57% hits;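 active = above the screen mean plus three standard deviations and confirmed in dose response; inconclusive = results disagree or hit not tested in dose response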;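 also: Vif residues 1-94 fused to GST binding biotinylated APOBEC3G peptide 110-148; 0% = full assay without inhibitor and 100% = GST in place of GST-Vif; retest series ran down from 100 µM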
Ecoli rRNA inh – reduced GFP signal of wild-type E. coli, primary screen, bacterial rRNA inhibitor project, GFP/RFP fluorescence, OD600, single point; E. coli WT GFP vs humanized-ribosome RFP mutants, 24 h; active compounds read low; DMSO median 0, no signal -100; GFP signal change (wild-type ribosome), % (no concentration beside the values); 350,000 compounds, 1.6% hits; AID 720706, 2013;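 active = significant combined selectivity score with lowered wild-type GFP, culture density cut under 30%, mutant RFP and density less affected; inactive = any of these conditions unmet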; also: one replicate is shown; some compounds called inactive have numbers as strong as hits
HNF4A DNA FP – change in binding of human HNF4A to DNA, primary screen, biochemical, fluorescence polarization, FITC-DNA | 1 h | activity change, % at 10 µM | 360,000 compounds, 0.3% hits; in the data active = activity change above about 30%, passing the limit was not always enough;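 also: controls were the assay level and a saturating level of protein; the project sought stronger binding though the title names inhibitors; some compounds called inactive have numbers as strong as hits; positive values seem to mean higher polarization but the record does not say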
Target sequence (P41235 whole entry, looked up): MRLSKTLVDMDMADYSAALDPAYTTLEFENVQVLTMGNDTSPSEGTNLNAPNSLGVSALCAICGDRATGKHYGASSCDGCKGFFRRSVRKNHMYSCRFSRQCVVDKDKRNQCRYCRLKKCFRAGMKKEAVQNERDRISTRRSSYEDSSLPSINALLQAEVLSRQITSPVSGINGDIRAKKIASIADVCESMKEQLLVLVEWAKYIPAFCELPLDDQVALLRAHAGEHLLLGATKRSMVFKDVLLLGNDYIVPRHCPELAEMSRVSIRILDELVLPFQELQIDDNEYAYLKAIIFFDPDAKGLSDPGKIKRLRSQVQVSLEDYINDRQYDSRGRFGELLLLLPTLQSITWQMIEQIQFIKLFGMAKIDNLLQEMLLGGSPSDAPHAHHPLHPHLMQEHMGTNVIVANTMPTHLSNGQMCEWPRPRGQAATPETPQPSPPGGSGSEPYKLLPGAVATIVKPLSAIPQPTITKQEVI
MLL AF4-AF9 inh – inhibitors of AF4 peptide binding to AF9, primary screen, biochemical, AlphaScreen, biotin-AF4 peptide, FLAG-AF9, single point. Protein AF-9 (Homo sapiens), P42568. inhibition, % at 10 µM. 350,000 compounds, 0.47% hits;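 active = every replicate reaching a set inhibition limit, whatever the replicate mean, cut at about 25% in these data; inconclusive = mean inhibition reaches that limit but some replicates miss it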;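 also: 0% = plate neutral control median and 100% = total signal loss; the record names both 10 and 1 µM as test concentration; the first replicate is given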
FGF22 binding – binders of human FGF22 protein, primary screen, FGF22 synaptogenesis inhibitor project, biophysical, thermal shift, single point; recombinant FGF22 thermal shift, SYPRO orange fluorescence; percent of sucrose octasulfate shift, DMSO zero; calls only at 9.99 µM; 340,000 compounds, 1.5% hits; AID 651658, 2012;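 active = melting point raised past a set limit in the mean and every replicate; inconclusive = no clear call; three in four hits are not shown here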
Target sequence (Q9HCT0 whole entry, looked up): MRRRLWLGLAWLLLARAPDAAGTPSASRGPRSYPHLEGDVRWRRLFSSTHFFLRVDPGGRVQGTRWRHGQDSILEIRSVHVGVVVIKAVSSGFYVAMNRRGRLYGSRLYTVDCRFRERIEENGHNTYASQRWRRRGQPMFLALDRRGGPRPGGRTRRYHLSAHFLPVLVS
Ecoli rRNA inh OD600 – also measured in Ecoli rRNA inh; calls as there; OD600 change, %; measured here: OD600 growth;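 optical density of the mix in the first replicate; 0 = DMSO median and -100 = no signal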
Ecoli rRNA inh RFP – second read-out of Ecoli rRNA inh, no call of its own (marks repeat the call); RFP signal change, %; measured here: RFP humanized mutant strains;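 first replicate; 0 = DMSO median and -100 = no signal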
* marks the source's active call; other numbers are inactive results; i = inactive; u = inconclusive; x = no result given.

Labels used below: A = ALR H2O2 inh; B = Ecoli growth; C = Vif TR-FRET; D = Ecoli rRNA inh; E = Ecoli rRNA inh OD600; F = Ecoli rRNA inh RFP; G = HNF4A DNA FP; H = MLL AF4-AF9 inh; I = FGF22 binding
(1) COCCNC(=O)c1ccc(N2CC3CC(C2)c2cccc(=O)n2C3)c([N+](=O)[O-])c1 (stereo unspecified)
  A = x; B = 0.69; C = -8%; D = 4; E = -9; F = -1.1; G = 0.0; H = -1.0; I = i

(2) CN(C)P(=O)(CCl)Nc1ccccc1 (stereo unspecified)
  A = -5; B = 0.72; C = x; D = x; E = x; F = x; G = 2.3; H = x; I = x

(3) Cc1cc(OC(C)C(=O)NCC(O)c2ccccc2)c2c3c(c(=O)oc2c1)CCC3 (stereo unspecified)
  A = -3; B = 0.68; C = 0%; D = -3; E = -5; F = 0.7; G = -0.8; H = 2.3; I = i

(4) O=C(Oc1c(Cl)cc(Cl)c2ccccc12)N1CCCCC1
  A = -1; B = 0.68; C = 8%; D = x; E = x; F = x; G = -5.4; H = x; I = x

(5) CCOP(=O)(OCC)C1(C(=O)O)CCCC1
  A = x; B = 0.67; C = -14%; D = 14; E = 10; F = 6.3; G = 1.4; H = -14; I = i

(6) Cc1noc(C)c1C(=O)N1CCC2(CC1)OCCO2
  A = -3; B = 0.68; C = 1%; D = 14; E = 13; F = -3.1; G = 0.3; H = 6.1; I = i

(7) O=C1C2CCCN2C(c2cccnc2)N1c1ccc(Cl)cc1 (stereo unspecified)
  A = -2; B = 0.71; C = 1%; D = x; E = x; F = x; G = 3.3; H = x; I = x

(8) CC(C)Oc1cccnc1N(C)C1CCN(Cc2ccccc2)CC1
  A = x; B = x; C = x; D = x; E = x; F = x; G = -0.8; H = 1.8; I = i

(9) COc1ccc2[nH]c3c(c2c1)CCNC3
  A = -5; B = 0.7; C = x; D = 10; E = 10; F = 0.7; G = 5.0; H = 5.5; I = i

(10) CC1c2ccccc2-n2nncc2CN1C (stereo unspecified)
  A = x; B = x; C = x; D = 9; E = 16; F = -3.4; G = -0.4; H = 0.5; I = i

Labels used below: A = ALR H2O2 inh; B = Ecoli growth; C = Vif TR-FRET; D = Ecoli rRNA inh; E = Ecoli rRNA inh OD600; F = Ecoli rRNA inh RFP; G = HNF4A DNA FP; H = MLL AF4-AF9 inh; I = FGF22 binding
(11) O=C(Cc1ccccc1)N1CCN(CCCc2ccccc2)CC1
  A = 1; B = 0.62; C = x; D = 4; E = 5; F = 1.7; G = 4.4; H = -2.6; I = i

(12) COc1ccc(NC(=S)NC(NC(=O)CF)C(Cl)(Cl)Cl)cc1[N+](=O)[O-] (stereo unspecified)
  A = -29; B = 0.7; C = 1%; D = -22*; E = -9.4*; F = -8.2*; G = 3.2; H = 1.5; I = i

(13) C(CCc1nn[nH]n1)CCc1nn[nH]n1
  A = 1; B = 0.66; C = -7%; D = 9; E = 8; F = -1.6; G = 4.5; H = -0.5; I = i

(14) O=c1[nH]c2ccccc2n1C1CCN(C(c2cc3ccccc3o2)c2nnnn2-c2ccc3c(c2)OCCO3)CC1 (stereo unspecified)
  A = x; B = x; C = x; D = 15; E = 5; F = 1.3; G = -1.1; H = -0.4; I = i

(15) Cc1nc2c(-c3ccccc3)c(C)nn2c(C)c1CCC(=O)N1CCC2(CC1)OCCO2
  A = -4; B = 0.7; C = 3%; D = x; E = x; F = x; G = -1.5; H = x; I = x

(16) CCN1C[C@]2(CO)CC[C@H](OC)[C@@]34C2[C@H](OC)[C@@](O)(C13)[C@@]1(O)C[C@H](OC)[C@H]2C[C@@H]4[C@@H]1[C@H]2OC
  A = -4; B = 0.67; C = -11%; D = 7; E = 5; F = -1.8; G = 2.4; H = -0.3; I = i

(17) CCOC(=O)[C@]12Cc3ccc(C)cc3[C@H]1N(C1CCCCC1)C(=O)c1cc(OC)ccc12
  A = x; B = x; C = x; D = -33; E = -73; F = -17; G = -0.4; H = -5.2; I = i

(18) CN(C)Cc1c[nH]c2ccc([N+](=O)[O-])cc12
  A = x; B = 0.67; C = -5%; D = -4; E = -1; F = 2.4; G = 1.9; H = 0.8; I = i

(19) COc1ccc(CNC(=O)C(NC(C)=O)C(C)C)cc1OC (stereo unspecified)
  A = -3; B = 0.71; C = x; D = 23; E = 15; F = -1.2; G = -1.3; H = -2.3; I = i

(20) COC(=O)C1=C(c2ccc(-c3ccccc3)c(F)c2)C[C@@H]2CC[C@H]1N2C(=O)NCCO
  A = -1; B = x; C = x; D = -1; E = 3; F = -2.7; G = 1.8; H = 3.1; I = i

Labels used below: A = ALR H2O2 inh; B = Ecoli growth; C = Vif TR-FRET; D = Ecoli rRNA inh; E = Ecoli rRNA inh OD600; F = Ecoli rRNA inh RFP; G = HNF4A DNA FP; H = MLL AF4-AF9 inh; I = FGF22 binding
(21) Cc1ccc(C)c(NC(=O)CSc2nnc([C@@H](N)Cc3c[nH]c4ccccc34)o2)c1
  A = 3; B = 0.7; C = 11%; D = x; E = x; F = x; G = 0.2; H = x; I = x

(22) CCCC[N+]12C3C[C@H](C4[C@H](O)[C@]5(C[C@@H]41)c1ccccc1N(C)[C@@H]35)[C@H](CC)[C@H]2O (stereo partly specified)
  A = 6; B = 0.64; C = -2%; D = 8; E = 13; F = 1.7; G = 2.5; H = -0.7; I = i

(23) COC(=O)[C@@H]1[C@@H](CO)[C@@H]2Cn3c(ccc(-c4ccccc4F)c3=O)[C@H]1N2C(=O)C1CC1
  A = x; B = x; C = x; D = 3; E = 2; F = -0.9; G = x; H = -0.2; I = i

(24) CC1(C(=O)O)CCCC2(C)c3cc(O)ccc3CCC12 (stereo unspecified)
  A = 5; B = 0.64; C = x; D = -5; E = -6; F = 0.6; G = 0.5; H = x; I = i

(25) COc1ccc(Cl)cc1C(=O)C1CCCN(Cc2cnc(C)s2)C1 (stereo unspecified)
  A = -1; B = 0.67; C = -8%; D = -15; E = -17; F = -1.6; G = -2.5; H = 2.6; I = i

(26) O=C(c1cc(S(=O)(=O)N2CCCCC2)ccc1F)N1CCC2(CC1)OCCO2
  A = 2; B = 0.65; C = -3%; D = 5; E = 9; F = -0.7; G = 4.2; H = 5.0; I = i

(27) C=Cn1ccnc1P(=S)(c1cc(N(CC)CC)ns1)c1nccn1C=C
  A = 4; B = 0.62; C = u; D = x; E = x; F = x; G = -0.2; H = x; I = x

(28) COc1cc2c(cc1C=O)OCO2
  A = 0; B = 0.64; C = 11%; D = 6; E = 14; F = 18; G = -0.9; H = -2.9; I = i

(29) NC(=O)CSc1nnc([C@@H](N)Cc2c[nH]c3ccccc23)o1
  A = 17; B = 0.71; C = 3%; D = x; E = x; F = x; G = 8.1; H = x; I = x

(30) Cc1cc(N2C(=O)C3CCCN3C2c2ccccc2)no1 (stereo unspecified)
  A = -3; B = 0.68; C = -1%; D = x; E = x; F = x; G = 2.1; H = x; I = x

(31) O=C(Cc1cccnc1)N1CCCCN2[C@H](C1)[C@@H](c1ccc(/C=C/c3ccccc3)cc1)[C@@H]2CO
  A = x; B = x; C = x; D = -57; E = -63; F = -7.6; G = x; H = 18; I = i

(32) N=C1c2ccccc2CN1NC(=O)c1ccc(Cl)cc1
  A = -3; B = 0.66; C = 3%; D = x; E = x; F = x; G = 2.8; H = x; I = x

Some of these compounds in order of number of heavy atoms, rising.
Labels used below: A = ALR H2O2 inh; B = Ecoli growth; C = Vif TR-FRET; D = Ecoli rRNA inh; E = Ecoli rRNA inh OD600; F = Ecoli rRNA inh RFP; G = HNF4A DNA FP; H = MLL AF4-AF9 inh; I = FGF22 binding
(28) COc1cc2c(cc1C=O)OCO2
  A = 0; B = 0.64; C = 11%; D = 6; E = 14; F = 18; G = -0.9; H = -2.9; I = i

(2) CN(C)P(=O)(CCl)Nc1ccccc1 (stereo unspecified)
  A = -5; B = 0.72; C = x; D = x; E = x; F = x; G = 2.3; H = x; I = x

(10) CC1c2ccccc2-n2nncc2CN1C (stereo unspecified)
  A = x; B = x; C = x; D = 9; E = 16; F = -3.4; G = -0.4; H = 0.5; I = i

(4) O=C(Oc1c(Cl)cc(Cl)c2ccccc12)N1CCCCC1
  A = -1; B = 0.68; C = 8%; D = x; E = x; F = x; G = -5.4; H = x; I = x

(7) O=C1C2CCCN2C(c2cccnc2)N1c1ccc(Cl)cc1 (stereo unspecified)
  A = -2; B = 0.71; C = 1%; D = x; E = x; F = x; G = 3.3; H = x; I = x

(27) C=Cn1ccnc1P(=S)(c1cc(N(CC)CC)ns1)c1nccn1C=C
  A = 4; B = 0.62; C = u; D = x; E = x; F = x; G = -0.2; H = x; I = x

(22) CCCC[N+]12C3C[C@H](C4[C@H](O)[C@]5(C[C@@H]41)c1ccccc1N(C)[C@@H]35)[C@H](CC)[C@H]2O (stereo partly specified)
  A = 6; B = 0.64; C = -2%; D = 8; E = 13; F = 1.7; G = 2.5; H = -0.7; I = i

(3) Cc1cc(OC(C)C(=O)NCC(O)c2ccccc2)c2c3c(c(=O)oc2c1)CCC3 (stereo unspecified)
  A = -3; B = 0.68; C = 0%; D = -3; E = -5; F = 0.7; G = -0.8; H = 2.3; I = i

(20) COC(=O)C1=C(c2ccc(-c3ccccc3)c(F)c2)C[C@@H]2CC[C@H]1N2C(=O)NCCO
  A = -1; B = x; C = x; D = -1; E = 3; F = -2.7; G = 1.8; H = 3.1; I = i

(15) Cc1nc2c(-c3ccccc3)c(C)nn2c(C)c1CCC(=O)N1CCC2(CC1)OCCO2
  A = -4; B = 0.7; C = 3%; D = x; E = x; F = x; G = -1.5; H = x; I = x

(16) CCN1C[C@]2(CO)CC[C@H](OC)[C@@]34C2[C@H](OC)[C@@](O)(C13)[C@@]1(O)C[C@H](OC)[C@H]2C[C@@H]4[C@@H]1[C@H]2OC
  A = -4; B = 0.67; C = -11%; D = 7; E = 5; F = -1.8; G = 2.4; H = -0.3; I = i

Screening data (PubChem)

This is a subset; the hit share may differ from the screen's.
